UUG fidelity = modulators of start codon recognition fidelity in yeast | S. cerevisiae UUG-firefly luciferase reporter, luminescence/redox ratio | 0.13% of 350,000 active | activity score, % at 18.7 µM | AID 602363;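 active means replicate mean at a twofold rise or more, about +100% in these data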;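 further: firefly luciferase made from a UUG start codon reports start codon fidelity; reporter light over untreated wells divided by growth signal over untreated wells; some hits fall short of that in this replicate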
Env fusion inh = blocks HIV Env-driven cell-cell fusion. 1.1% of 360,000 active. HeLa-JRFL Env/CEM21 cell fusion, luciferase. inhibition, % at 12.3 µM. AID 651610;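 active means mean replicate inhibition score of at least 50 and every replicate individually at or above 50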;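 further: 0% = plate neutral controls and 100% = maraviroc near 300 nM; one replicate is shown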
* = called active by the depositor; [ ] = dose if it differs, or a comment. Some of the compounds tested (hit frequency here may not be typical).

SMILES	UUG fidelity	Env fusion inh
C[C@@H]1CN([C@H](C)CO)C(=O)c2cccc(NS(=O)(=O)c3ccc(Cl)cc3)c2O[C@@H]1CN(C)Cc1ccc(C(=O)Nc2ccccc2N)cc1	16	-79[16.7 µM]
C[C@@H]1CN([C@@H](C)CO)C(=O)c2cc(NS(=O)(=O)c3cn(C)cn3)ccc2O[C@@H](C)CCCCO[C@@H]1CN(C)Cc1ccncc1	-11	-9[16.7 µM]
O=C(NCC[C@@H]1CC[C@@H](NC(=O)c2ccccc2F)[C@H](CO)O1)c1ccc2c(c1)OCO2	-1	0[16.7 µM]
CN(C)C(=O)C[C@@H]1CC[C@H](NC(=O)C2CC2)[C@H](CO)O1	-23	-11[16.7 µM]
COc1ccc(CN(C)C[C@@H]2Oc3ccc(NC(=O)Nc4ccccc4)cc3C(=O)N([C@H](C)CO)C[C@H]2C)cc1	-10	-10[16.7 µM]
COc1ccc(S(=O)(=O)Nc2ccc3c(c2)C(=O)N([C@@H](C)CO)C[C@@H](C)[C@@H](CN(C)C(=O)Nc2ccc4c(c2)OCO4)OCCCC[C@@H](C)O3)cc1	-8	-22[16.7 µM]
CCC(=O)Nc1ccc2c(c1)C(=O)N(C)C[C@H](OC)[C@H](C)CN(CCc1ccccc1)[C@@H](C)CO2	-12	0[16.7 µM]
C[C@@H]1CN([C@H](C)CO)C(=O)c2cc(NS(=O)(=O)c3cccs3)ccc2O[C@@H](C)CCCCO[C@@H]1CN(C)Cc1ccc(Cl)c(Cl)c1	23	35[16.7 µM]
COc1ccc(S(=O)(=O)N2C[C@@H](O)COC[C@@H]3O[C@@H](CC(=O)NCc4ccc(Cl)c(Cl)c4)CC[C@H]32)cc1	27	3[16.7 µM]
C[C@@H]1CN([C@@H](C)CO)C(=O)Cc2cc(N(C)C)ccc2O[C@@H]1CN(C)Cc1ccc(C(F)(F)F)cc1	9	12[16.7 µM]
COCC(=O)N(C)C[C@@H]1Oc2ncc(C#Cc3ccncc3)cc2C(=O)N([C@@H](C)CO)C[C@@H]1C	-17	3[16.7 µM]
CCC(=O)N1C[C@@H](C)[C@H](OC)CN(C)C(=O)c2cc(NC(=O)C3CC3)ccc2OC[C@H]1C	2	6[16.7 µM]
C[C@@H]1CN([C@@H](C)CO)C(=O)Cc2cc(NC(=O)Nc3ccc(F)cc3)ccc2O[C@H]1CN(C)Cc1ccc(-c2ccccc2)cc1	-18	1[16.7 µM]
CCCNC(=O)N1C[C@@H](O)COC[C@H]2O[C@@H](CC(=O)N[C@@H]3CCN(Cc4ccccc4)C3)CC[C@@H]21	33	7[16.7 µM]
CCCN(C)C[C@@H]1Oc2cc(C#CC3CC3)ccc2S(=O)(=O)N([C@@H](C)CO)C[C@@H]1C	-2	15[16.7 µM]
Cc1cc(C(=O)Nc2cccc3c2O[C@@H](CN(C)S(=O)(=O)c2ccc(Cl)cc2)[C@H](C)CN([C@H](C)CO)C3=O)n(C)n1	-9	-68[16.7 µM]
C[C@@H]1CN([C@H](C)CO)C(=O)c2cccc(NC(=O)Nc3ccccc3)c2O[C@H]1CN(C)C	-6	5[16.7 µM]
O=C(C[C@H]1CC[C@H](NC(=O)CN2CCOCC2)[C@@H](CO)O1)NCCc1ccncc1	6	-11[16.7 µM]
Cc1ccc(S(=O)(=O)Nc2ccc3c(c2)C(=O)N([C@@H](C)CO)C[C@H](C)[C@@H](CN(C)C(=O)CCC(F)(F)F)OCCCC[C@@H](C)O3)cc1	7	-64[16.7 µM]
CC(C)C#Cc1ccc2c(c1)O[C@H](CN(C)C(=O)C1CC1)[C@H](C)CN([C@@H](C)CO)S2(=O)=O	11	16[16.7 µM]
C[C@@H]1CN([C@@H](C)CO)S(=O)(=O)c2ccc(C3=CCCC3)cc2O[C@@H]1CN(C)C(=O)C1CCC1	-12	23[16.7 µM]
C[C@@H]1CCCCO[C@@H](CN(C)C(=O)Nc2ccccc2)[C@@H](C)CN([C@H](C)CO)C(=O)c2cc(NC(=O)CCC(F)(F)F)ccc2O1	-8	19[16.7 µM]
COc1ccc(S(=O)(=O)Nc2ccc3c(c2)C(=O)N([C@H](C)CO)C[C@H](C)[C@@H](CN(C)Cc2ccccc2)OCCCC[C@@H](C)O3)cc1	0	10[16.7 µM]
O=C(CCN1CCCCC1)N[C@@H]1CC[C@@H](CCNS(=O)(=O)c2ccccc2)O[C@H]1CO	6	5[16.7 µM]
COc1ccc(NC(=O)Nc2cccc3c2O[C@@H](CN(C)C(=O)Nc2c(C)noc2C)[C@H](C)CN([C@@H](C)CO)C3=O)cc1	-11	-1[16.7 µM]
C[C@@H]1CN([C@@H](C)CO)S(=O)(=O)c2ccc(/C=C/c3ccccc3)cc2O[C@@H]1CN(C)CC1CC1	3	13[16.7 µM]
C[C@@H]1CN([C@H](C)CO)C(=O)c2cccc(NC(=O)C3CC3)c2O[C@H]1CN(C)S(=O)(=O)c1ccc(F)cc1	11	-14[16.7 µM]
C/C=C/c1ccc2c(c1)O[C@@H](CN(C)Cc1ccc(F)cc1)[C@H](C)CN([C@@H](C)CO)S2(=O)=O	-1	24[16.7 µM]
C[C@@H]1CCCCO[C@H](CN(C)C(=O)Nc2ccccc2)[C@H](C)CN([C@@H](C)CO)C(=O)c2cc(NS(=O)(=O)c3cn(C)cn3)ccc2O1	-18	-6[16.7 µM]
CC(C)C#Cc1cnc2c(c1)C(=O)N([C@@H](C)CO)C[C@H](C)[C@@H](CN(C)C(=O)c1ccc3c(c1)OCO3)O2	16	47[16.7 µM]
C[C@H]1CCCCO[C@H](CN(C)C(=O)Nc2ccc3c(c2)OCO3)[C@@H](C)CN([C@@H](C)CO)C(=O)c2cc(NS(=O)(=O)c3ccc(Cl)cc3)ccc2O1	-8	31[16.7 µM]
COc1ccc(NC(=O)N(C)C[C@@H]2Oc3ccc(NC(=O)Cc4cn(C)c5ccccc45)cc3C(=O)N([C@H](C)CO)C[C@@H]2C)cc1	3	21[16.7 µM]

Molecules above that contain fluorine (7):
SMILES	UUG fidelity	Env fusion inh
O=C(NCC[C@@H]1CC[C@@H](NC(=O)c2ccccc2F)[C@H](CO)O1)c1ccc2c(c1)OCO2	-1	0[16.7 µM]
C[C@@H]1CN([C@@H](C)CO)C(=O)Cc2cc(N(C)C)ccc2O[C@@H]1CN(C)Cc1ccc(C(F)(F)F)cc1	9	12[16.7 µM]
C[C@@H]1CN([C@@H](C)CO)C(=O)Cc2cc(NC(=O)Nc3ccc(F)cc3)ccc2O[C@H]1CN(C)Cc1ccc(-c2ccccc2)cc1	-18	1[16.7 µM]
Cc1ccc(S(=O)(=O)Nc2ccc3c(c2)C(=O)N([C@@H](C)CO)C[C@H](C)[C@@H](CN(C)C(=O)CCC(F)(F)F)OCCCC[C@@H](C)O3)cc1	7	-64[16.7 µM]
C[C@@H]1CCCCO[C@@H](CN(C)C(=O)Nc2ccccc2)[C@@H](C)CN([C@H](C)CO)C(=O)c2cc(NC(=O)CCC(F)(F)F)ccc2O1	-8	19[16.7 µM]
C[C@@H]1CN([C@H](C)CO)C(=O)c2cccc(NC(=O)C3CC3)c2O[C@H]1CN(C)S(=O)(=O)c1ccc(F)cc1	11	-14[16.7 µM]
C/C=C/c1ccc2c(c1)O[C@@H](CN(C)Cc1ccc(F)cc1)[C@H](C)CN([C@@H](C)CO)S2(=O)=O	-1	24[16.7 µM]

Further compounds follow:
SMILES	UUG fidelity	Env fusion inh
C[C@@H]1CN([C@H](C)CO)C(=O)c2cccc(NC(=O)Nc3ccc(C(F)(F)F)cc3)c2O[C@@H]1CN(C)CC1CC1	5	-63[16.7 µM]
CC(C)NC(=O)Nc1ccc2c(c1)C(=O)N([C@@H](C)CO)C[C@H](C)[C@@H](CN(C)C(=O)Nc1ccccc1)O2	12	-1[16.7 µM]
C[C@@H]1CCCCO[C@@H](CN(C)C(=O)Nc2ccc3c(c2)OCO3)[C@@H](C)CN([C@H](C)CO)C(=O)c2cc(NC(=O)Nc3ccc4c(c3)OCO4)ccc2O1	-2	-21[16.7 µM]
CNC(=O)C[C@@H]1CC[C@H]2[C@@H](COc3ccc(NC(=O)Nc4c(C)noc4C)cc3C(=O)N2C)O1	-6	3[16.7 µM]
CCCc1cn(CC[C@@H]2CC[C@H](NC(=O)Cc3cccnc3)[C@H](CO)O2)nn1	-11	-9[16.7 µM]
O=C(C[C@@H]1C[C@@H]2c3cc(NC(=O)C4CCC4)ccc3O[C@@H]2[C@@H](CO)O1)NCc1cc(F)ccc1F	-1	11[16.7 µM]
C[C@H]1CN([C@@H](C)CO)C(=O)c2cc(-c3cccc(F)c3)cnc2O[C@@H]1CN(C)Cc1cccc(F)c1	-12	20[16.7 µM]
C[C@H](CO)N1C[C@H](C)[C@@H](CN(C)CC2CCCCC2)OCCCC[C@H](C)Oc2ccc(NC(=O)Cc3ccccc3)cc2C1=O	8	-3[16.7 µM]
CN1CCN(C(=O)C[C@H]2C[C@H]3c4cc(NC(=O)Nc5ccccc5)ccc4O[C@H]3[C@@H](CO)O2)CC1	3	-16[16.7 µM]
C[C@H]1CN([C@@H](C)CO)C(=O)c2cc(N(C)C)ccc2O[C@@H]1CN(C)C(=O)Nc1cccc2ccccc12	8	14[16.7 µM]
CO[C@@H]1CN(C)C(=O)c2ccc(NC(=O)Nc3cccc(F)c3)cc2OC[C@@H](C)N(C)C[C@@H]1C	7	8[16.7 µM]
Cc1noc(C)c1S(=O)(=O)Nc1ccc2c(c1)CC(=O)N([C@@H](C)CO)C[C@@H](C)[C@@H](CN(C)CC1CC1)O2	-14	-4[16.7 µM]
CO[C@H]1CN(C)C(=O)c2ccc(NC(=O)c3ccccc3)cc2OC[C@@H](C)N(CC2CC2)C[C@H]1C	-4	-15[16.7 µM]
C[C@@H]1CN([C@@H](C)CO)C(=O)c2cc(NS(=O)(=O)c3ccccc3)ccc2O[C@@H]1CN(C)CC1CCCCC1	2	-7[16.7 µM]
CC(=O)N(C)C[C@@H]1Oc2ncc(-c3ccccc3C)cc2C(=O)N([C@H](C)CO)C[C@@H]1C	-15	37[16.7 µM]
C[C@@H]1CCCCO[C@H](CN(C)Cc2ccc(C(F)(F)F)cc2)[C@@H](C)CN([C@H](C)CO)C(=O)c2cc(NC(=O)Nc3ccc(C(F)(F)F)cc3)ccc2O1	-17	12[16.7 µM]
C[C@H](CO)N1C[C@H](C)[C@H](CN(C)C(=O)c2cccc(F)c2)Oc2ncc(-c3ccccc3)cc2C1=O	-2	21[16.7 µM]
COc1ccc(NC(=O)Nc2ccc3c(c2)[C@@H]2C[C@@H](CC(=O)NCc4ccc5c(c4)OCO5)O[C@H](CO)[C@@H]2O3)cc1	4	-12[16.7 µM]
COc1ccc(NC(=O)Nc2ccc3c(c2)C(=O)N([C@H](C)CO)C[C@@H](C)[C@@H](CN(C)C(=O)Nc2ccc4c(c2)OCO4)OCCCC[C@@H](C)O3)cc1	-11	16[16.7 µM]
CCCN(C)C[C@H]1Oc2ncc(-c3cccc(C(=O)N(C)C)c3)cc2C(=O)N([C@H](C)CO)C[C@H]1C	-11	-27[16.7 µM]
O=C(C[C@H]1C[C@H]2c3cc(NC(=O)NC4CCCCC4)ccc3O[C@H]2[C@@H](CO)O1)NCc1ccccc1	-2	9[16.7 µM]
Cc1cc(C(=O)Nc2cccc3c2O[C@H](CN(C)S(=O)(=O)c2ccc(Cl)cc2)[C@@H](C)CN([C@@H](C)CO)C3=O)n(C)n1	0	2[16.7 µM]
COc1ccc(NC(=O)N(C)C[C@H]2Oc3ccc(NC(=O)Nc4c(C)noc4C)cc3C(=O)N([C@@H](C)CO)C[C@H]2C)cc1	-29	5[16.7 µM]
C[C@@H]1CN([C@@H](C)CO)S(=O)(=O)c2ccc(C#Cc3ccc(F)cc3)cc2O[C@H]1CN(C)C(=O)NC1CCCCC1	7	9[16.7 µM]
O=C(Nc1ccc(F)cc1)N[C@@H]1CC[C@H](CCNS(=O)(=O)c2cccc(Cl)c2)O[C@@H]1CO	4	-3[16.7 µM]
C[C@H](CO)N1C[C@H](C)[C@@H](CN(C)C(=O)Cc2ccccn2)Oc2ncc(/C=C/c3ccccc3)cc2C1=O	-7	7[16.7 µM]
Cc1ccc(-c2cnc3c(c2)C(=O)N([C@@H](C)CO)C[C@H](C)[C@@H](CN(C)C(=O)c2cccc(F)c2)O3)cc1	13	-7[16.7 µM]
C[C@H]1CN([C@@H](C)CO)C(=O)c2cc(NC(=O)Nc3cccc4ccccc34)ccc2O[C@@H]1CN(C)C	-5	4[16.7 µM]
COCC(=O)N(C)C[C@@H]1Oc2ncc(/C=C/c3ccccc3)cc2C(=O)N([C@@H](C)CO)C[C@@H]1C	1	-38[16.7 µM]
C[C@H](CO)N1C[C@H](C)[C@H](CN(C)Cc2ccc3c(c2)OCO3)Oc2ccc(N(C)C)cc2CC1=O	0	13[16.7 µM]
Cc1noc(C)c1NC(=O)Nc1ccc2c(c1)C(=O)N([C@@H](C)CO)C[C@@H](C)[C@@H](CN(C)C(=O)Nc1ccccc1)OCCCC[C@H](C)O2	8	-21[16.7 µM]
Cc1ccc(S(=O)(=O)Nc2ccc3c(c2)C(=O)N([C@H](C)CO)C[C@@H](C)[C@H](CN(C)C(=O)Nc2c(C)noc2C)OCCCC[C@@H](C)O3)cc1	0	-3[16.7 µM]

High-throughput results from PubChem BioAssay.
